# High-throughput results (PubChem BioAssay)
# HSD17B inh: inhibitors of human HSD17B10 dehydrogenase; recombinant HSD17B10, NADH fluorescence kinetic; many of its hits are not listed in these tables; Potency, µM (highest dose often 57.1 µM), for the others: top-dose activity change, negative = inhibition, hits mostly inhibitors; 75,000 tested, 7.6% active; active = well fitted inhibition curve with a large enough effect; inconclusive = small, poorly fitted or top-dose-only effect; inactive = no such curve, though single readings can be large or run the other way;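 also: the protocol describes HADH2 (HSD17B10) and not the HSD17B4 of the title; nearly all actives have a fitted effect of over 70% in size; most hits overshoot -100% by far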
#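 His-tagged E. coli-expressed HADH2 at 20 nM in 100 mM Tris-HCl pH 9.0 with 0.01 % Tween-20, preincubated 15 min with compound at room temperature. Reaction with 1 mM NAD+ and 90 uM beta-hydroxybutyryl coenzyme A; NADH fluorescence (360/450 nm) read kinetically over 4 min, last minus first point.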
# * = called active by the depositor; ? = inconclusive; [ ] = dose if it differs, or a comment. % is scaled to controls: 0 for no effect and ±100 for the full control effect; potency is read from the fitted curve at half-maximal effect. The list is partial; count on the stated rates, not on these rows.
SMILES	HSD17B inh
CC1(C(=O)NCc2cccnc2)CCC(=O)N1CCc1ccccc1 (stereo not drawn)	9%
CCCCCC/C(=N/O)c1ccccn1	9%
CC(Oc1ccccc1)C(=O)OCC(=O)NC(=O)NCc1ccco1 (stereo not drawn)	1%
Cc1cc(C)c2nc(N3CCCC(C(=O)N4CCC(C(N)=O)CC4)C3)sc2c1 (stereo not drawn)	-1%
COc1ccc(C(=O)C2CCN(S(=O)(=O)c3ccc4c(c3)OCCO4)CC2)cc1	7%
Nc1ccn(-c2ccccc2)c(=O)c1	11%
Cc1ccc(NC(=O)c2cnc3scc(C)n3c2=O)c(C)c1	-7%
CCCCC(CC)CNC(=O)CCS(=O)(=O)c1cccc2nsnc12 (stereo not drawn)	-2%
CC1CCN(Cc2ccc(NC(=O)CC3Oc4ccccc4NC3=O)cc2)CC1 (stereo not drawn)	-8%
CCOCC(=O)Nc1c(C(=O)OCC)oc2ccccc12	-29%
Cc1ccc(C(C)n2cc(C(=O)NCc3ccncc3)nn2)cc1 (stereo not drawn)	3%
COc1ccc(CNC(=O)CCc2nc(-c3ccccc3F)no2)c(OC)c1	-4%
N#Cc1ccc(CN2CCC3(CCNCC3)CC2)cc1	-3%
O=S(=O)(c1ccc2c(c1)OCCO2)N1CCC(n2nnc3cc(C(F)(F)F)ccc32)CC1	-3%
O=C1c2ccccc2C(=O)N1CCCOc1ccccc1	-2%
COc1ccc(OC)c2c(C)cc(N3CCN(C(=O)c4ccc(F)cc4)CC3)nc12	25µM*
COc1ccc(C2CC(C(F)(F)F)n3nc(C(=O)O)cc3N2)cc1OC (stereo not drawn)	-3%
O=C1NC(=S)SC1=C1CCCCCC1	?
O=C(NCc1ccccc1F)C1CCCN1C(=O)NCc1ccccc1 (stereo not drawn)	-2%
Cn1c2c(c(=O)n(C)c1=O)CN(Cc1ccco1)CN2	0%
Cc1cc(C(=O)Cn2nnc(-c3ccc(Cl)cc3)n2)c(C)n1CC1CCCO1 (stereo not drawn)	?
O=C(Nc1nc2ccccc2[nH]1)C1CCCO1 (stereo not drawn)	4%
Clc1ccccc1-c1nc(-c2cccnc2)no1	-2%
CCn1c(SCC(=O)Nc2cc(C)c(Cl)cc2OC)nnc1-c1ccco1	10%
CCOc1ccc(C(=O)N(CN2CCCC2=O)c2ccccc2)cc1	7%
Clc1ccccc1OCc1nnc(-c2ccccc2Br)o1	-9%
O=C(Nc1ccccc1)N[C@H]1C[C@H](C(=O)O)Nc2cc(Cl)cc(Cl)c21	-3%
CCCN(Cc1cc2cc(C)ccc2[nH]c1=O)S(C)(=O)=O	7%
O=C1CCCCCN1CP(=O)(O)CN1CCOCC1	12%
Oc1c(-c2cc(-c3ccco3)[nH]n2)ccc2ccccc12	25µM*

# Two of these compounds, reformatted:
structure: Cc1ccc(NC(=O)c2cnc3scc(C)n3c2=O)c(C)c1
  HSD17B inh: -7%

structure: CC1CCN(Cc2ccc(NC(=O)CC3Oc4ccccc4NC3=O)cc2)CC1 (stereo not drawn)
  HSD17B inh: -8%

# Further entries follow:
SMILES	HSD17B inh
O=C(NC1CCCCC1)N1CCc2ccccc21	16%
CCOc1ccccc1Nc1ccc(N)cc1S(=O)(=O)O	-13%[11.4 µM]
O=C(c1cnccn1)N1CCC2(CC1)CCN(c1ccccn1)CC2	-22%
O=C(C(Cc1ccccc1)n1cccc1)N1CCCCCC1 (stereo not drawn)	0%
CCCn1c(CNS(=O)(=O)c2ccc(C)cc2)nc2ccccc21	3%
COc1ccccc1C(=O)NCC(c1cccnc1)N(C)C (stereo not drawn)	0%
O=C(CCNc1n[nH]c(=O)[nH]c1=O)N1CCOCC1	2%
CCCC12CN3CC(CCC)(CN(C1)C3C(O)C(O)C(O)CO)C2=O (stereo not drawn)	2%
O=C(COC(=O)c1cccc(S(=O)(=O)N2CCN(c3ccccc3)CC2)c1)NCc1ccco1	25µM*
CCOC(=O)N1CCN(S(=O)(=O)c2ccc(OCC)c3ccccc23)CC1	-26%
O=C1CCCCCN1Sc1ccccc1	-12%
O=C(O)c1oc(C(=O)O)c(C(=O)O)c1C(=O)O	0%[11.4 µM]
Cc1ccc(-n2c(Cc3cccs3)nnc2SCC(=O)Nc2ccc(S(N)(=O)=O)cc2)cc1	1%
Cc1ccc(-c2nnn(CC(=O)N(CC(=O)NCC3CCCO3)c3ccc(F)c(Cl)c3)n2)o1 (stereo not drawn)	-5%
O=C(Nc1nncs1)c1ccc(Br)c(S(=O)(=O)N2CCCC2)c1	-19%
COc1ccc2cc(C#N)c(NC(C)C)nc2c1	25µM*
CCn1c(SCC(=O)Nc2nc3ccccc3s2)nnc1-c1ccc(OC)cc1	7%
COc1ccc(/C=N/n2c(=O)[nH]c3c([nH]c4ccc(C)cc43)c2=O)cc1CN1CCOCC1	32µM*
COc1ccc(NC(=O)C2CCCN(S(=O)(=O)c3cnc[nH]3)C2)cc1 (stereo not drawn)	5%
CCn1cc(C2=NOC(C(=O)Nc3cc(C)nn3-c3ccccc3)C2)c(C)n1 (stereo not drawn)	12%
C=CCn1c(SCC(=O)Nc2cc(NC(C)=O)ccc2OC)nnc1-c1ccccn1	10%
CCOC(=O)CCC(=O)N1CCNC(=O)C1	-4%
O=C(COc1ccccc1O)Nc1ccc(Cl)cc1	-8%
OC(COc1ccc2cc(Br)ccc2c1)CN1CCCC1 (stereo not drawn)	5%
CNc1nc2c(c(=O)n(C)c(=O)n2C)n1Cc1ccccc1	3%
COc1ccc(CNC(=O)c2cc(-c3cccc(OC)c3)on2)cc1	4%
COCCn1nnnc1C(c1ccccc1)N1CCN(Cc2ccc3c(c2)OCO3)CC1 (stereo not drawn)	?
O=C(CSc1ncn[nH]1)NC1CC2CCC1C2 (stereo not drawn)	12%
C=CCNC(=O)C1CCN(S(=O)(=O)CC)CC1	0%
C=CCn1c(COc2ccccc2F)nnc1SCC(=O)NC(=O)NCc1ccco1	-27%
CCOC(=O)c1c(NC(=O)CSc2nnc(-c3ccc(OC)cc3)o2)sc2c1CCC2	?
Cc1cc(CN2C(=O)c3ccccc3C2=O)cc(N2CCOCC2)c1	-1%
CCc1nc(SCC(=O)c2ccc(C)c(C)c2)n[nH]1	-15%
COc1ccc(C(=O)Nc2ccc(S(=O)(=O)N3CCOCC3)cc2)cc1OC	3%
CC1(C)Oc2ccc3ccc(=O)oc3c2/C(=C/N)C1=O	-6%
N#Cc1cc2sc3nnc(-c4ccncc4)n3c2cc1C#N	-26%
COC(=O)[C@H](Cc1ccccc1)NC(=O)NCc1ccc(S(N)(=O)=O)cc1	1%
CC(=O)N(CC(=O)O)c1ccccc1C(=O)O	4%
O=C(NC1CCCC1)c1cccc(S(=O)(=O)N2CCCCC2)c1	10%
Cc1ccc(-c2nc(C(=O)NC3CCCCCC3)no2)cc1	-4%
CC1=C2C(O)C(=O)OC3CC4C(C)(C)C(=O)C=C[C@]4(C)C(CC1)[C@@]23C (stereo partly drawn)	7%
Cc1c(C(=O)Nc2ccc(Cl)cn2)oc2ccccc12	-2%
c1ccc(-c2cnc(CSc3nnc4ccccn34)o2)cc1	-5%
O=C(O)c1cc2nc(-c3ccccc3)cc(C(F)(F)F)n2n1	?
COc1cccc(C(=O)N2CCN(CCCc3ccccc3)CC2)c1OC	12%
CCN1C(=O)[C@@H]2[C@H]3C(=CC[C@H]2C1=O)C(=O)[C@H]1OC1[C@H]3O (stereo partly drawn)	-9%[11.4 µM]
CCS(=O)(=O)N1CCN(C(=O)CCC2CCCC2)CC1	-10%
COc1ccc(-n2c3c(cc(C(=O)Nc4ccc5c(c4)C(=O)NC5=O)c2=O)C(=O)CCC3)cc1	-7%
c1ccc2c(c1)CCCc1cc(NCCN3CCOCC3)nnc1-2	0%[25.6 µM]
O=C(Nc1cccnc1)C(Cc1ccccc1)n1cccc1 (stereo not drawn)	5%
O=C(Cl)c1ccc([N+](=O)[O-])cc1	2%
COc1ccc(CCNC(=O)C2CCN(Cc3nc(-c4ccccc4F)oc3C)CC2)cc1OC	11%
O=C(COc1ccccc1)NCCn1ccc2ccccc21	9%
Cc1cc(Cl)ccc1OCCCC(=O)N1CCOCC1	-1%
O=C(NCc1cccs1)C1CCN(S(=O)(=O)N2CCCC2)CC1	1%
CCOC(=O)NC(=O)CSc1nnnn1-c1ccccc1	-4%
O=C1C=CC(=O)c2c(O)c(Cl)c(Cl)c(O)c21	3.2µM*
CCOc1ccc(Nc2nc(NCCN3CCOCC3)nc(OC)n2)cc1	12%
O=C(c1cnn2c(C(F)F)cc(-c3ccccc3)nc12)N1CCOCC1	25µM*
O=c1nc(-c2ccccc2)c2ccccc2[nH]1	25µM*

# Pulled one by one from above:
SMILES	HSD17B inh
CCCC12CN3CC(CCC)(CN(C1)C3C(O)C(O)C(O)CO)C2=O (stereo not drawn)	2%
O=C(COC(=O)c1cccc(S(=O)(=O)N2CCN(c3ccccc3)CC2)c1)NCc1ccco1	25µM*
CC1(C(=O)NCc2cccnc2)CCC(=O)N1CCc1ccccc1 (stereo not drawn)	9%

# (listing goes on)
SMILES	HSD17B inh
C=C(C)C1Cc2c(ccc(C(=O)O)c2O)O1 (stereo not drawn)	-3%
CC1CN(S(=O)(=O)c2ccc(Cl)c(S(=O)(=O)N3CC(C)OC(C)C3)c2)CC(C)O1 (stereo not drawn)	2%
Cc1noc(C)c1CSc1nnc2c(C)cc3ccccc3n12	13%
Cn1ccnc1SCc1cn2ccccc2n1	-2%
COc1cc(C(=O)N2CCCC(c3nc(-c4cccs4)no3)C2)cc(OC)c1OC (stereo not drawn)	1%
CC(C)[C@@H](OCc1ccccc1)[C@H](C)/C=N\OC[C@@H](C)[C@H](OCc1ccccc1)C(C)C	3%[11.4 µM]
Cc1ccc(CN2CC34C=CC(O3)C(C(=O)NCc3ccco3)C4C2=O)cc1 (stereo not drawn)	?
CCOC(=O)COC(=O)c1ccc(O)cc1	14%
Cc1nc(Nc2ccc3c(c2)OCCO3)c2oc3ccccc3c2n1	-3%
CCC(c1nnnn1C(C)(C)C)N1CCN(C2CCCC2)CC1 (stereo not drawn)	-1%
Cc1c(Cl)cccc1Nc1nc(N)nc(CSCCO)n1	7%
COC(=O)CSc1nnc2n(C3CCCCC3)c(=O)c3c4c(sc3n12)CCCC4	0%
O=C(NCC(c1cccnc1)N1CCOCC1)c1ccc2c(c1)OCO2 (stereo not drawn)	-3%
O=C(NCCCN1CCOCC1)[C@@H]1CSC2c3ccccc3C(=O)N21 (stereo partly drawn)	-3%
O=C1CC(c2ccccc2)Cc2nc(NCc3ccco3)ncc21 (stereo not drawn)	25µM*
O=C1CC(c2ccco2)CC2=C1C1c3ccccc3C(=O)N1c1ccccc1N2 (stereo not drawn)	-7%
CCN1CCN(C(c2cccs2)C(C)NC(=O)c2ccccc2)CC1 (stereo not drawn)	5%
CC(C)(C)c1nnc2sc(SCCN3C(=O)c4ccccc4C3=O)nn2c1=O	5%
Nc1nc2c(nc(Sc3ccc(Cl)cc3)n2C2OC(CO)C(O)C2O)c(=O)[nH]1 (stereo not drawn)	-16%
CCCCCNC(CC(=O)Nc1ccc(OC)cc1)C(=O)O (stereo not drawn)	5%
CCOC(=O)c1cccnc1SCC(=O)NC(C)CC (stereo not drawn)	12%
Cc1occc1-c1nnc(SCC(=O)NCCc2ccccc2)n1C(C)c1ccccc1 (stereo not drawn)	-14%
O=C(NCc1ccccc1)N(Cc1nc2ccccc2c(=O)[nH]1)C1CCCC1	25µM*
CCOC(=O)C1=C(CSc2n[nH]c(N)n2)NC(=O)NC1C (stereo not drawn)	3%
Cc1cc(NC(=O)CCC2COc3ccccc3O2)no1 (stereo not drawn)	-7%
CC(C)(O)C#Cc1ccc(C(=O)N2CCN(C(=O)c3ccco3)CC2)cc1	3%
CC(=O)N1CCC[C@@]2(CCN(C(=O)Nc3ccccc3)C2)C1	3%
O=C1CCC[C@@H](C(C(=O)OCc2ccccc2)C(=O)OCc2ccccc2)C1	-2%[11.4 µM]
COC(=O)C(O)(CC(=O)Nc1cccc(SC)c1)C(F)(F)F (stereo not drawn)	0%
CCS(=O)(=O)N1CCCC(C(=O)N2CCc3ccccc3C2)C1 (stereo not drawn)	-5%

# Laid out differently: entries from further up
mol: O=C(NCCCN1CCOCC1)[C@@H]1CSC2c3ccccc3C(=O)N21 (stereo partly drawn)
  HSD17B inh: -3%

mol: O=C1CC(c2ccccc2)Cc2nc(NCc3ccco3)ncc21 (stereo not drawn)
  HSD17B inh: 25µM*

mol: O=C1CC(c2ccco2)CC2=C1C1c3ccccc3C(=O)N1c1ccccc1N2 (stereo not drawn)
  HSD17B inh: -7%

mol: CCN1CCN(C(c2cccs2)C(C)NC(=O)c2ccccc2)CC1 (stereo not drawn)
  HSD17B inh: 5%

# Additional entries:
SMILES	HSD17B inh
Cc1ccc(S(=O)(=O)Nc2nonc2C)cc1	-6%
Nc1ncn(C(=O)c2ccco2)n1	5%
Cc1cc(C)n(-c2nc3ccccc3nc2N2CCOCC2)n1	2%
COc1cc(OC)cc(C(=O)OCc2cc3ccccc3[nH]c2=O)c1	4%
